# PINK1 expr mod = modulators of PINK1 expression; PINK1 immunofluorescence, high-content cytometry, 24 h; Potency, µM (series often up to 76.6 µM), for inactives: at the highest dose activation (PINK1 increase), usual class: activators; hit rate 0.2% among 410,000; active = well fitted activation curve with a large enough effect; inconclusive = small, poorly fitted or top-dose-only effect; inactive = flat fitted curve, though single readings scatter; cell line not stated here;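 further: % of control where 0% means no effect; nearly all actives have a fitted effect of over 65% in size; a mitochondrial uncoupler was the plate control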
#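 Cells are seeded, rested 12 hours, then given compound at five concentrations or DMSO for 24 hours. After fixation, blocking and antibody staining, PINK1 amount and mitochondrial localization are scored; CCCP serves as control.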
# Starred values were filed as active, the others as inactive; ? = inconclusive; & = joins results of further samples. Potency means the concentration at half of the fitted maximal effect. These rows are one share of the data; the hit share may differ from the screen's.
SMILES,PINK1 expr mod
Cc1ccc(Cn2c(CO)cnc2SCc2cccc(F)c2)cc1,1.4%
CCc1ccc(-c2nc(CN3CCCC(C(=O)NCc4ccc(C)cc4)C3)c(C)o2)cc1 (stereo unspecified),0.5%
COc1ccc2c(c1)c1c(c(=O)n(-c3ccc(OC)c(OC)c3)c(=O)n1CC(=O)N1CCCC1)n2C,0.5%
COc1ccc(CCNc2nc(SCc3ccccc3F)nc3ccccc23)cc1OC,4.5%
COc1cccc(-c2nn3c(=O)cc(CN4CCN(C(=O)/C=C/c5ccccc5)CC4)nc3s2)c1,0.1%
COc1ccc(CC(=O)Nc2ccc(-c3nc4ccccc4s3)cc2Cl)cc1OC,3.6%
Cc1ccc(-c2nc(=Nc3ccccc3)sn2-c2ccccc2)cc1,?
Cc1ccc(N2C(=O)C(CC(=O)Nc3cccc(F)c3)N(CCc3ccccc3F)C2=O)cc1 (stereo unspecified),0.0%
CCOC(=O)C1=C(CN(CC)Cc2ccccc2)NC(=O)NC1c1ccc(OC)cc1 (stereo unspecified),-2.0%
COc1ccccc1NC(=O)c1ccc(CN2C(=O)C(C)=C(c3ccc(C)c(C)c3)S2(=O)=O)cc1,2.4%
COc1ccc(Nc2ncnc3c2nc2n3CCCC2)cc1Cl,?
CCn1cc(C(=O)N(C)c2ccc(C(C)C)cc2)c2cc(OC)c(OC)cc2c1=O,-0.7%
COc1cc(NC(=O)CSc2ccc(-c3sc(-c4ccccc4)nc3C)nn2)cc(OC)c1,0.4%
O=C(NCCc1ccccc1)c1cc(Sc2cccc(Cl)c2)nc2ccccc12,-4.8%
O=C(NCc1ccccc1Cl)C1CCCN(c2ncnc3onc(-c4ccc(F)cc4)c23)C1 (stereo unspecified),-0.5%
CCC(=O)N1CCc2cc(Br)cc(S(=O)(=O)N3CCCC(C(=O)Nc4ccc(C)c(F)c4)C3)c21 (stereo unspecified),3.5%
COc1ccc(C2C=C(c3ccccc3)Nc3nc(NC(=O)/C=C/c4ccc(F)cc4)nn32)cc1 (stereo unspecified),-0.3%
COC(=O)c1ccc2c(c1)N(CC(=O)Nc1ccc(OC)c(Cl)c1)C(=O)c1ccccc1S2,7.5%
Fc1ccc(N2CCN(c3ncnc4c3nc3n4CCCCC3)CC2)cc1,1.6%
CC1CCCCN1CCCNC(=O)c1cc(Sc2ccc(Cl)cc2)nc2ccccc12 (stereo unspecified),2.1%
O=C(CSc1nc2c([nH]c3ccccc32)c(=O)n1-c1ccc(Cl)cc1)NCc1ccccc1,?
COc1ccc(NC(=O)C2CCC(CNS(=O)(=O)c3ccc(Br)s3)CC2)c(OC)c1 (stereo unspecified),2.7%
CCCCOc1cccc(C(=O)N2CCN(CCc3ccncc3)CC2)c1,-0.6%
CCOCN(C(=O)Cn1cnc2cc(C)c(C)cc21)c1c(C)cccc1CC,2.5%
CCc1ccc(C(=O)N2CCC(c3nc(-c4ccc(S(=O)(=O)N5CCCC5)cc4)no3)CC2)cc1,2.6%
COc1ccc(N2CCN(CC(O)COc3ccccc3C(C)(C)C)CC2)cc1 (stereo unspecified),?
Cc1cccc(CNC(=O)CN2CC(C)Sc3ccccc32)c1 (stereo unspecified),14.7%
CCc1ccc(NC(=O)Cn2c(=O)n(CCc3ccccc3)c(=O)c3sc4ccccc4c32)cc1,0.0%
COc1cccc(CNC(=O)Cn2c(=O)n3nc(-c4cccc(C)c4)nc3c3ccccc32)c1,1.0%
Cc1ccc(C(=O)N2CCC(C(N)=O)CC2)cc1NC(=O)c1nsc2ccccc12,-0.2%
Fc1ccc(CCNc2ncnc3nc[nH]c23)cc1,0.0%&-0.7%
Cc1ccccc1CNC(=O)Cn1nc(C)c2nn(-c3ccc(Cl)cc3)c(C)c2c1=O,1.1%
CCc1ccc(NCc2cc3cc(OC)c(OC)cc3n(CC(=O)Nc3ccc(F)cc3)c2=O)cc1,-1.2%
Cc1cccc(-c2nc(SCC(=O)N3CCc4ccccc43)c3c(=O)n(C)c(=O)n(C)c3n2)c1,-0.1%
CCOc1ccc(C=Nc2ccc(/C=C/c3ccnc4ccccc34)cc2)cc1OCC,-0.7%
CCN(Cc1ccccc1)S(=O)(=O)c1cc(C(=O)Nc2cc(Cl)cc(Cl)c2)ccc1F,44.7µM*
Cc1cc(CN2CCN(c3ccccc3F)CC2)cs1,6.7%
CN(C)c1ccc(CNC(=O)c2ccc3c(c2)N(C)C(=O)C2CCCCN32)cc1 (stereo unspecified),3.2%
COc1ccc(S(=O)(=O)c2c(Nc3ccccc3F)sc(C(=O)c3cccc(OC)c3)c2N)cc1,6.5%
O=C(CN1C(=O)COc2ccc(S(=O)(=O)Nc3ccccc3)cc21)Nc1cccc(Cl)c1,2.1%
Cc1c(C(=O)OC2CCC(C)CC2)[nH]c2c1C(=O)CC(c1ccc(N(C)C)cc1)C2 (stereo unspecified),6.2%
Cc1ccc(-n2ncc(C(=O)NCc3ccco3)c2C2CCN(C(=O)OC(C)(C)C)CC2)cc1,-0.5%
CN(C)CCCN(C(=O)c1cccs1)c1nc2ccc(F)cc2s1,0.1%
COc1cccc(-n2c(=O)c3sc4ccccc4c3n(CC(=O)Nc3ccc(F)cc3F)c2=O)c1,7.8%
COc1ccc(-n2nc(C(=O)N3CCN(c4cccc(C)c4C)CC3)c3c4ccccc4n(C)c3c2=O)cc1Cl,-0.4%
COc1ccc(CN2CCCC(n3cc(C(=O)N4CCCCC4)nn3)C2)c(OC)c1C (stereo unspecified),-0.8%
CCOC(=O)c1c(NC(=O)c2ccccc2C)sc2c1CCCC2,1.7%
CC(=O)N1CCc2cc(S(=O)(=O)NC(CC(C)C)C(=O)NCc3ccccc3)ccc21 (stereo unspecified),3.6%
O=C(NCC1(N2CCOCC2)CCCC1)c1cnn(-c2nccc(-c3ccco3)n2)c1C1CC1,0.4%
Cc1ccc(-c2noc(-c3cccnc3N(C)Cc3ccc(Cl)cc3)n2)cc1,5.0%
COc1ccc(-n2c(=O)c3ccc(C(=O)NCc4ccc(C)cc4)cc3n(CC(=O)Nc3ccc(F)cc3)c2=O)cc1,4.4%
Cc1ccccc1C(=O)NCc1nc(-c2ccc(Cl)cc2)no1,-0.9%
Cc1ccc(OCCOCCn2c(-c3ccc(Cl)cc3)nc3ccccc3c2=O)cc1,1.1%
COc1ccc2c(c1)c1c(c(=O)n(Cc3ccccc3)c(=O)n1CC(=O)NCc1ccccc1Cl)n2C,-0.2%
COc1ccccc1NC(=O)C1CCN(S(=O)(=O)c2ccc3[nH]c4c(c3c2)CCCCC4)CC1,-1.2%
Cc1ccccc1-c1noc(-c2ccc(N3CCN(c4ccccc4)CC3)c([N+](=O)[O-])c2)n1,0.6%
CCOc1ccc(CNC(=O)c2ccc3c(c2)nnn3C2CCCC2)cc1,0.7%
COc1ccccc1CCNC(=O)c1ccc(-c2nc(CSc3ccc(C)cc3)c(C)o2)cc1,2.6%
COc1ccc2c(c1)c1c(c(=O)n(-c3cccc(Cl)c3)c(=O)n1C)n2C,1.3%
CCOC(=O)c1ccccc1NC(=O)CCc1c(C)nc2c(c1C)c(=O)n(C)c(=O)n2C,2.7%

# New compounds follow:
SMILES,PINK1 expr mod
CCC(O)c1cc2c(cc1NC(=O)c1ccccc1F)OCCO2 (stereo unspecified),-0.6%
Cc1cccc2c1-c1sc(C(=O)N3CCN(c4cccc(Cl)c4)CC3)cc1CO2,-0.2%
CCCCC(CC)CNC(=O)c1ccc2c(=O)n(Cc3ccc(OC)cc3)c(=O)[nH]c2c1 (stereo unspecified),2.8%
CC(=O)c1sc2c(c1C)c(=O)n(-c1ccc(Cl)cc1)c(=O)n2Cc1ccc(Cl)cc1,2.2%
COc1ccc(-c2oc3ncn4nc(COc5cccc(C)c5C)nc4c3c2-c2ccc(OC)cc2)cc1,-2.2%
CCN(CC)S(=O)(=O)c1ccc(NC(=O)NCc2noc3ccc(C)cc23)cc1,-1.2%
COc1ccc(Cc2nc3ccc(C(=O)NCc4ccc(OC)cc4OC)cc3o2)cc1,5.7%
Cc1ccc(OCC(=O)N(Cc2ccco2)Cc2ccco2)cc1C,-0.9%
COc1cc(NC(=O)C2CCN(S(=O)(=O)c3c(C)noc3/C=C/c3ccccc3F)CC2)cc(OC)c1OC,1.6%
COc1ccc(-c2nc(CSCC(=O)NCc3ccccc3Cl)c(C)o2)cc1OC,0.9%
Cc1ccc(C)c(NC(=O)Cn2c(=O)n(CCC(C)C)c(=O)c3cccnc32)c1,0.7%
CC(C)CN(CCCNC(=O)Cn1ncc2c3ccccc3n(C)c2c1=O)CC(C)C,0.7%
CCOc1ccc(C(=O)c2cn(CC(=O)Nc3cc(OC)cc(OC)c3)c3ccc(F)cc3c2=O)cc1,4.7%
CCc1cccc(C)c1NC(=O)C(CC)Sc1nncn2c1cc1occc12 (stereo unspecified),0.6%
CCC(C)NC(=O)c1[nH]c2cc(OC)ccc2c1Sc1ccc(C)cc1 (stereo unspecified),4.4%
CC(=O)Nc1nonc1-c1nnc(SCc2ccccc2)n1C,1.5%
CC(CCc1ccccc1)NC(=O)CSc1n[nH]c(-c2ccc(F)cc2)n1 (stereo unspecified),4.0%
O=C1c2[nH]nc(-c3ccc(F)cc3)c2C(c2ccccc2F)N1c1ccccc1 (stereo unspecified),2.5%
CC(C)c1ccc(NC(=O)C2CCN(S(=O)(=O)c3cccc4nsnc34)CC2)cc1,10.6%
CCOC(=O)c1cccc(NC(=O)CSc2nc3cc4ccccc4cc3[nH]2)c1,2.7%
Cc1c(Cl)cccc1NC(=O)c1cc(-c2cccc(Cl)c2)on1,1.8%
CCc1ccc(CNC(=O)CN2C(=O)CSc3ccc(S(=O)(=O)N4CCOCC4)cc32)cc1,1.0%
COc1cc(=O)n2c(c1C(=O)N(C)Cc1nonc1C)CCN(Cc1cccc3ccccc13)CC2,-0.5%
COCCOC(=O)Cn1nnc2sc(-c3ccccc3)cc2c1=O,1.6%
Cc1ccc(C)c(N2CCN(C(=O)CCS(=O)(=O)c3cc4c(cc3Cl)NC(=O)CO4)CC2)c1,-1.5%
COc1ccccc1CNC(=O)c1cc2c(s1)-c1ccc(Cl)cc1SC2,2.4%
CCNC(=O)c1c(NC(=O)c2nc(SC)ncc2Cl)sc2c1CCCC2,1.3%
COc1ccccc1C(=O)OCc1cc(=O)n2c(C)csc2n1,-0.6%
COc1ccc(-c2nnc(SCC(=O)NCCc3ccccc3)nc2-c2ccc(OC)cc2)cc1,6.6%
CCc1ccc(S(=O)(=O)c2cnc3ccc(OC)cc3c2N2CCCC(C)C2)cc1 (stereo unspecified),0.9%
CCn1cc(C(=O)N2CCN(c3cc(Cl)ccc3C)CC2)c(=O)c2cc(S(=O)(=O)N3CCCCC3)ccc21,0.0%
CCCN(C(=O)c1cc2c(=O)oc3ccc(C)cc3c2s1)c1ccc(OCC)cc1,0.8%
COc1ccc(N2CC(NC(=O)/C=C\c3ccc(OC)c(OC)c3)CC2=O)cc1 (stereo unspecified),0.9%
Cc1cc(C)cc(OC(C)C(=O)Nc2c(C(=O)c3ccccc3)oc3ccccc23)c1 (stereo unspecified),1.3%
N#Cc1ccccc1Cn1nnc2c(=O)[nH]c(C3CCCN(S(=O)(=O)c4ccc(F)cc4)C3)nc21 (stereo unspecified),-0.8%
CCCCNC(=O)c1cccc(NC(=O)c2nsc3ccccc23)c1,1.6%
COc1cccc(NC(=O)Cn2c(=O)n(-c3ccc(C)cc3)c(=O)c3ccc(C(=O)NCc4ccco4)cc32)c1,6.1%
O=C1CN(C(=O)c2ccccc2C(F)(F)F)C(c2ccccc2)c2cc(F)ccc2N1 (stereo unspecified),-0.8%
CN1C(=O)Cc2cc(S(=O)(=O)NCc3ccc(Cl)cc3)ccc21,1.1%
CN(C)CCN(Cc1ccco1)S(=O)(=O)c1cc2c(cc1Cl)NC(=O)CO2,-1.0%
Cc1cccc(C)c1Nc1c(-c2ccsc2)nc2ccc(Cl)cn12,2.0%
O=c1cc(CN2CCN(S(=O)(=O)c3ccccc3)CC2)nc2sc(-c3ccccc3Cl)nn12,1.4%
Cc1cccc(NC(=O)CSc2cn(CC(=O)N3CCOCC3)c3ccccc23)c1C,1.2%
Cc1cc(C)c2c(=O)cc(C(=O)NCCc3ccc(S(N)(=O)=O)cc3)oc2c1,7.0%
